Screening data from PubChem BioAssay.
Marburg entry inh: Marburg virus entry inhibition; Marburg virus pseudotyped entry inhibition, cell reporter; control for the full effect not named in the record; about a third of the inactives were read at about 46 µM; Potency, µM (highest dose often 37.8 µM), without a hit: top-dose activity change, negative = inhibition, hits mostly inhibitors; hit rate 1.8% among 300,000; AID 540276; active = well fitted inhibition curve with a large enough effect; inconclusive = small, poorly fitted or top-dose-only effect, or effect the other way; inactive = flat fitted curve, though single readings scatter; tested in HEK293 cells; about a fifth of its hits are not listed in these tables; also: % is scaled to controls: 0 for no effect and ±100 for the full control effect; luciferase read-out
Cruzain Triton: cruzain (T. cruzi) inhibition with detergent; P25779; purified cruzain, Z-FR-AMC fluorescence, 0.01% Triton; Potency, µM, for inactives: max response, negative = inhibition, most hits filed as inhibitors; hit rate 0.43% among 200,000; AID 1478; active = well fitted curve in the direction sought with a large enough effect; inconclusive = small, poorly fitted or top-dose-only effect, or another doubt; inactive = no such curve, though single readings can be large; an effect the other way counts as inactive or inconclusive;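 also: plate controls were neutral wells for no effect and buffer without enzyme for full effect; nearly all actives have a fitted effect of over 40% in size; top concentration of the series not given in the record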
Target sequence (P25779 123-467 limits assumed): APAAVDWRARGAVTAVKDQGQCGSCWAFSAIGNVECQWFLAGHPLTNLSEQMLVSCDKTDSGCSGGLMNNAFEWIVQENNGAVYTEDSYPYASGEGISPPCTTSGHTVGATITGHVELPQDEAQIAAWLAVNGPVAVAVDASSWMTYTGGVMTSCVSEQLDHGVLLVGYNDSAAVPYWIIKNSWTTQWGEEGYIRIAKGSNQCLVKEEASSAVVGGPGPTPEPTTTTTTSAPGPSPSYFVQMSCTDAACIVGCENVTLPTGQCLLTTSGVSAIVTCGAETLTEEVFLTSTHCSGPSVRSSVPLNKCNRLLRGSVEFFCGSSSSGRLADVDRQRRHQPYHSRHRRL
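Detergent-containing arm of a paired screen for aggregation-based inhibition: 0.01% Triton X-100 present. Cruzain at 1.5 nM cleaved 2 uM Z-FR-AMC at pH 5.5 with 5 mM DTT; AMC fluorescence gain over 60 s measured activity.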
SARS PLpro yeast: SARS-CoV PLP inhibition in yeast | S. cerevisiae expressing SARS-CoV PLpro, growth rescue; control for the full effect not named in the record | Potency, µM (titrated, usually from 32.9 µM), without a hit: at the top dose activity, positive = growth rescue | hit rate 0.19% among 330,000 | AID 485353; also: 0% is about no effect; nearly all actives have a fitted effect of over 55% in size; growth read by luminescence after 48 h
NS1 inh: blocks influenza NS1 protein function; AID 2326; Potency, µM (top dose mostly 46.1 µM), inactives show top-dose activity, positive = more growth; hit rate 0.4% among 270,000; S. cerevisiae slowed by influenza A NS1, growth recovery by OD600; also: actives are rising curves; nearly all actives have a fitted effect of over 50% in size
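Growth recovery, yeast-based: influenza A NS1 expressed in S. cerevisiae causes slow growth, and suppressors are detected by OD600. The parent strain without NS1 is used as positive control.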
2A StopGo: lowers the luciferase signal of an FMDV 2A StopGo reporter; human cells with a luciferase reporter of 2A StopGo recoding; control for the full effect not named in the record; Potency, µM (titrated, usually from 57.9 µM), for inactives: top-dose signal change, negative = less light; hit rate 1.2% among 410,000; AID 1159524; active = well fitted falling curve with a large enough effect; inconclusive = small, poorly fitted or top-dose-only effect; inactive = no such curve, though single readings can be large or run the other way; tested in HEK293T cells; also: % is scaled to controls: 0 for no effect and ±100 for the full control effect; nearly all actives have a fitted effect of over 45% in size; luciferase light after 4 h
LASV entry inh: Lassa virus entry inhibition | Lassa virus pseudotype entry inhibition, cell reporter; control for the full effect not named in the record | Potency, µM (doses to about 37.9 µM), inactives show at the highest dose activity change, negative = inhibition, usual class: inhibitors | hit rate 1.2% among 300,000; active means well fitted inhibition curve with a large enough effect; inconclusive means small, poorly fitted or top-dose-only effect, or effect the other way; inactive means flat fitted curve, though single readings scatter; tested in HEK293 cells; also: % is scaled to controls: 0 for no effect and ±100 for the full control effect; nearly all actives have a fitted effect of over 50% in size; luciferase read-out
Cruzain inh noDet: cruzain (T. cruzi) inhibition without detergent | P25779 | AID 1476 | Potency, µM, without a hit: max response, negative = inhibition, most hits filed as inhibitors | hit rate 2.3% among 200,000 | purified cruzain, Z-FR-AMC fluorescence, no detergent; active = well fitted curve in the direction sought with a large enough effect; inconclusive = small, poorly fitted or top-dose-only effect, or another doubt; inactive = no such curve, though single readings can be large; an effect the other way counts as inactive or inconclusive;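 also: plate controls were enzyme without inhibitor for no effect and buffer without enzyme for full effect; nearly all actives have a fitted effect of over 40% in size; top concentration of the series not given in the record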
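Purified cruzain at 1.5 nM, pre-incubated 15 min with compound at room temperature in 100 mM sodium acetate pH 5.5, 5 mM DTT, 0.00005% Triton X-100. Reaction started with 2 uM Z-FR-AMC; AMC fluorescence increase over 60 s gives rate.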
RE007 growth inh: less growth of the S. pombe RE007 Vpr strain; S. pombe RE007 Vpr strain, BacTiter-Glo ATP luminescence, 24 h; control for the full effect not named in the record; Potency, µM (doses to about 92.2 µM), inactives show at the top dose activity change, negative = less growth; AID 651644; hit rate 0.21% among 360,000; active = well fitted falling curve with a large enough effect; inconclusive = small, poorly fitted or top-dose-only effect; inactive = no such curve, though single readings can be large or run the other way;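 also: % is scaled to controls: 0 for no effect and ±100 for the full control effect; nearly all actives have a fitted effect of over 50% in size; the assay follows cell death caused by Vpr and the record does not say whether a fall means rescue or toxicity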
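Fission yeast strain RE007, carrying one chromosomally integrated HIV-1 vpr copy, was seeded at OD 0.01 in PMG+AL medium with 23 nL pinned compound. After 24 h at 30 °C and 99% humidity, viability was read by BacTiter-Glo luminescence.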
* hit, by the source's call; ? = inconclusive; nt = not tested or not shown; & = joins results of further samples; [ ] = remark or other dose. Unless noted, calls follow the shape of the dose curve; as a rule, active means well fitted rising curve with a large enough effect; inconclusive means small, poorly fitted or top-dose-only effect; inactive means no such curve, though single readings can be large or run the other way. Potency is read from the fitted curve at half-maximal effect. Not a hit list. Share with any hit: about 4.6%.

SMILES	Marburg entry inh	Cruzain Triton	SARS PLpro yeast	NS1 inh	2A StopGo	LASV entry inh	Cruzain inh noDet	RE007 growth inh
CC1CN(S(=O)(=O)c2cccc(C(=O)Nc3ccc(S(=O)(=O)Nc4ncccn4)cc3)c2)CC(C)O1 (stereo not given)	-2%[46.1 µM]	nt	0%	nt	-16%	-22%[46.1 µM]	nt	0%
C/C(=N\N(C)c1ccccc1)c1c(O)[nH]c(=O)[nH]c1=O	?	nt	0%	-2%	9%	-5%[46.1 µM]	nt	3%
O=S(=O)(N1CCCCC1)N1CCCN(S(=O)(=O)N2CCCCC2)CC1	9%	3.3%	1%	-1%	-30%	15%	7%	-8%
COc1ccc(-c2csc(NC(=O)c3c(C)noc3C)n2)cc1F	?	nt	6%	nt	40µM*	1%	nt	2%
COc1cccc(C(=O)Cn2c(=O)n(CC3CCCO3)c(=O)c3ccccc32)c1 (stereo not given)	20%[46.1 µM]	-6.7%	7%[6.58 µM]	-1%	-15%	0%	1%	17%
CCCN1C2CCCC1CC(NC(=O)c1ccc(F)cc1)C2 (stereo not given)	?	6.3%	-1%	-3%	-16%	4%	-5%	-1%
COCCNC(=O)CN(Cc1ccc(F)cc1)C(=O)CCC(=O)Nc1nccs1	11%[46.1 µM]	nt	4%	-10%	-9%	3%	nt	-8%
Cc1ccc2[nH]c(O)c(N=NC(=O)CCc3ccccc3)c2c1Br	8%	-5.9%	?	-3%	-21%	1%	1%	-15%
Cc1cc(C(=O)Nc2c(C)nn(Cc3ccccc3Cl)c2C)no1	1%	2.2%	-3%	-9%	-2%	-7%	-4%	2%
CC(=O)N(CCCCl)C(C#N)c1ccccc1 (stereo not given)	?	-0.5%	-21%	2%	6%	-7%	-18%	0%
COc1ccc(Cl)cc1C(=O)Nc1nnn(C)n1	?	5.9%	-1%	-9%	57%[activator]	11%	0%	7%
CCc1c(C)nc(N2CCN(c3ccc(Cl)cc3)CC2)[nH]c1=O	?	nt	2%	6%	-10%	11%	nt	3%
CC(NC(=O)c1ccc(Cl)cc1)C(=O)N1CCCCC1 (stereo not given)	nt	2.8%	-9%	-1%	7%	nt	4%	3%
Cn1nnc2cc(C(=O)Nc3ccccc3)ccc21	nt	nt	1%	8%	70%[activator]	nt	nt	0%
COc1cc(/C=N/n2nnnc2N)ccc1OC(C)=O	6%	nt	1%	18%	1%	8%	nt	-5%
CCOC(=O)c1c(C)n(-c2ccc(C)cc2)c2c(C(C(C)=O)C(=O)O)c(Br)c(O)c(O)c12 (stereo not given)	-29%	-11%	-13%	11%	0%	?	?	2%
CC(=O)N1CCc2cc(Br)cc(S(=O)(=O)N3CCN(c4cccc(C)c4)C(C)C3)c21 (stereo not given)	-2%[46.1 µM]	-5.6%	nt	nt	-17%	0%[46.1 µM]	?	nt
C#CCOCCOCCOCCNc1nc(N2CCN(C(=O)Cn3cc(CCCCN)nn3)CC2)nc(N2CCN(C(=O)[C@H](C(C)C)n3cc(CCO)nn3)CC2)n1	4%	-2.0%	-9%	-20%	-5%	-2%	?	-6%
Cc1cccc(N2CCN(S(=O)(=O)c3nnc(NC(=O)c4ccc(Cl)cc4)s3)CC2)c1	nt	-0.8%	nt	nt	-21%	0%[46.1 µM]	-4%	nt
Cc1cc(Br)ccc1NC(=O)C1CCCO1 (stereo not given)	-5%	1.2%	5%	2%	nt	6%	0%	42%
COc1ccc(C(=O)NC(=S)NC(C)(C)C)cc1Br	-4%	-9.8%	?	-10%	-6%	-5%	-4%	-18%
Cc1ccccc1/C=N/Nc1ccc(Cl)nn1	7%	nt	-7%	nt	10%	-14%	nt	8%
COC(=O)CN(c1ccc(Cl)cc1C)S(C)(=O)=O	-14%[46.1 µM]	nt	-1%	5%	-12%	15%[46.1 µM]	nt	-9%
O=C(Nc1ccc(O)c(-c2nc3ccccc3s2)c1)c1cc(=O)c2ccccc2o1	?	-14%	13%	11%	?	2%	?	4%
Cc1ccsc1C(=O)C1CCCN(Cc2cnc(N3CCOCC3)s2)C1 (stereo not given)	?	nt	1%	?	25µM*	?	nt	-18%
Other entries:
SMILES	Marburg entry inh	Cruzain Triton	SARS PLpro yeast	NS1 inh	2A StopGo	LASV entry inh	Cruzain inh noDet	RE007 growth inh
O=C(O)c1ccccc1C(=O)NCCc1c(C(=O)O)[nH]c2ccc(Cl)cc12	nt	nt	2%	1%	-14%	nt	nt	-3%
COc1ccccc1NC(=O)C(C)OC(=O)/C(=C/c1ccccc1)NC(C)=O (stereo not given)	?	nt	8%	nt	-7%	5%	nt	-2%
COc1ccc(-c2cccc(NS(=O)(=O)c3cc(C)c(Cl)cc3C)c2)nn1	nt	-1.6%	nt	nt	23%	-20%[46.1 µM]	-27%	nt
CC(=O)Nc1ccc(NS(C)(=O)=O)cc1	26%&26%	0.3%	-7%	0%	8%	5%	-9%	1%
CCc1ccc(Oc2c(C(F)(F)F)oc3c(CN4CCCC(C)C4)c(O)ccc3c2=O)cc1 (stereo not given)	-5%[46.1 µM]	-0.9%	nt	nt	-4%	27%[46.1 µM]	18%	nt
O=C(c1cc(-c2ccccc2O)on1)N1CCc2ccccc2C1	nt	-9.1%	-4%	-60%	40%[activator]	nt	-9%	-1%
COc1ccc(S(=O)(=O)N(CCCN2CCOCC2)Cc2cccc3ccccc23)cc1	-14%	1.6%	8%	-11%	11%	?	-14%	10%
Cc1ccc(NS(=O)(=O)c2cccc(C(=O)NCC(c3ccc(F)cc3)N3CCOCC3)c2)cc1 (stereo not given)	?	nt	3%	nt	13%	?	nt	-11%
CCOc1ccc(CCNC(=O)CS(=O)Cc2nc(-c3ccccc3Cl)oc2C)cc1OCC (stereo not given)	-5%[46.1 µM]	nt	-3%	4%	2%	-25%[46.1 µM]	nt	-1%
CCCNC(=O)c1cc(-c2ccccc2)c(N2CCCCC2)s1	nt	nt	-1%	-2%	-15%	nt	nt	-15%
Cc1cc(F)ccc1NC(=O)CN1C(=O)CCc2cc(S(=O)(=O)N3CCOCC3)ccc21	nt	-3.2%	nt	nt	-13%	?	9%	nt
C=CCn1cccc(C(=O)Nc2ccc(Cl)cc2)c1=O	nt	nt	-1%	-37%	10%	nt	nt	-6%
CN=CC1=C(O)C(C(=O)OC)C(C)(C)CC1=O (stereo not given)	2%[46.1 µM]	nt	6%	nt	-1%	nt	nt	-5%
CC1CCCC/C1=N\Nc1ccc(S(N)(=O)=O)cc1[N+](=O)[O-] (stereo not given)	18%	-3.9%	-10%	13%	7%	-15%	-9%	-10%
CC(C)n1cc(C(N)=S)c(=O)n(Cc2ccccc2)c1=O	3%	nt	-1%	-4%	-30%	nt	nt	5%
c1ccc2sc(C3CCNCC3)nc2c1	8%	nt	0%	0%	-7%	?	nt	9%
CC1=NN(/C(=N\c2nnc(C)s2)Nc2ccccc2)[C@H](c2ccc(C)cc2)S1	?	-6.9%	?	-4%[9.22 µM]	5%	?	-11%	-1%
Cc1ccccc1C(=O)Oc1cccc2c(O)cccc12	?	nt	-14%	-101%	4%	?	nt	?
CN(Cc1ccc(F)cc1)C(=O)C(Cc1ccccc1)NC(=O)c1ccccc1 (stereo not given)	?	nt	nt	nt	-15%	-21%	nt	4%
Cc1ccc(NC(=O)c2cc(-c3ccc4c(c3)OCO4)on2)cc1	1%	-0.4%	-4%	-3%	9%&19%	?	2%	2%
CCN(C(=O)c1c(-c2ccccc2)noc1C)c1ccccc1	?	0.1%	2%	?	-6%	15%	4%	1%
CCCCc1ccc(NC(=O)c2cc3c(=O)n4ccccc4nc3n2C)cc1	nt	-1.3%	nt	nt	-3%	3%[46.1 µM]	13%	nt
O=C(c1ccc(Cl)cc1)C1CCCN(Cc2cccc3cnccc23)C1 (stereo not given)	nt	nt	-1%	-2%	?	nt	nt	-16%
CN(C)CC(C)(C)CNC(=O)c1cc(Br)cc(Br)c1O	nt	nt	1%	-2%	1%	nt	nt	12%
CCOC(=O)N1CCN(C(=O)CSc2cc(C)nc3c(-c4ccccc4OC)c(C)nn23)CC1	-28%	-9.5%	4%	-6%	?	-7%	?	13%
Continuation.
SMILES	Marburg entry inh	Cruzain Triton	SARS PLpro yeast	NS1 inh	2A StopGo	LASV entry inh	Cruzain inh noDet	RE007 growth inh
CCc1nnc(NC(=O)C=C(C)C)s1	29%	-0.5%	-8%	2%	25%	?	14%	-11%
CCc1ccc(N2CCN(CCNC(=O)Nc3ccccc3)CC2)cc1	nt	nt	5%	?	-2%	nt	nt	-5%
CCOc1cc(/C=C/C(=O)c2ccc(OC)c(CN3CCOCC3)c2)cc(Br)c1O	?	nt	1%	6%	-3%	?	nt	-8%
COC(=O)c1ccc(C2CC(=O)Nc3cc(OC)c(OC)c(OC)c32)cc1 (stereo not given)	-26%	-1.1%	-26%	-2%	10%	3%	4%	1%
Cc1ccc(CN2CCN(/N=C/c3cc(Br)cc(Br)c3O)CC2)c(C)c1	?	-1.4%	-7%	-4%	4%	1%	?	-7%
CCCS(=O)(=O)N1CCN(CCN2C(=O)c3cccc4cccc(c34)C2=O)CC1	-1%[46.1 µM]	nt	1%	2%	-21%	nt	nt	0%
O=C(CSc1ncn[nH]1)N1c2ccccc2Sc2ccccc21	-19%[46.1 µM]	nt	-3%	-39%	-7%	3%	nt	-4%
CCn1ccc2cc(S(=O)(=O)N3CCC(C(=O)NCc4cccc(C)c4)CC3)ccc21	nt	-3.4%	nt	nt	-5%	-1%[46.1 µM]	-18%	nt
CCC(=O)NC(=S)Nc1ccc(NC(=O)CC)cc1	?	-0.5%	22%	8%	18%	5%	0%	10%
CN(C)S(=O)(=O)c1ccc(C(=O)Nc2cccc(C(=O)N3CCOCC3)c2)cc1	-3%	nt	-1%	-2%	-16%	-16%	nt	-2%
O=C(NCc1ccc(F)cc1)c1cccc(S(=O)(=O)N2CCCC2)c1	-14%	-2.5%	1%	1%	-15%	-21%	-2%	0%
COc1cc(/C=N/NC(=O)c2ccc(N)cc2)ccc1OC(=O)c1cccc(C)c1	1%	nt	?	-19%	0%	-15%	nt	4%
O=C(CCNS(=O)(=O)c1ccccc1)OCc1nnc(-c2ccccc2)o1	20%	nt	0%	nt	27%	8%	nt	5%
N=C1C(c2ccccc2)=C(O)CN1c1ccccc1N1CCOCC1	-17%	0.4%	6%	0%	nt	-13%	6%	-7%
